Cruzain noTriton – inhibitors of Trypanosoma cruzi cruzain without detergent; purified cruzain, Z-FR-AMC fluorescence, no detergent; Potency, µM, inactives show max response, negative = inhibition, hits mostly inhibitors; 2.3% of 200,000 active;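 note: plate controls were enzyme without inhibitor for no effect and buffer without enzyme for full effect; nearly all actives have a fitted effect of over 40% in size; top concentration of the series not given in the record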
Target sequence (P25779 123-467 limits assumed): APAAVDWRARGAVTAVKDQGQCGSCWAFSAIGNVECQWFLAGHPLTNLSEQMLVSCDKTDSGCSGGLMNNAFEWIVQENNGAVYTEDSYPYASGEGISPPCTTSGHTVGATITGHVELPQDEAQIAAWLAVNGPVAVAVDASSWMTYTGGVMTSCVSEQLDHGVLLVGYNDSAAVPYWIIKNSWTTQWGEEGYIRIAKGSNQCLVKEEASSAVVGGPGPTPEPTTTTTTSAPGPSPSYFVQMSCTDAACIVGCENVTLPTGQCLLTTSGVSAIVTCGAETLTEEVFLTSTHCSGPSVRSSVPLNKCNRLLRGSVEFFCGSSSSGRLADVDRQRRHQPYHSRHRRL
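Purified cruzain at 1.5 nM, pre-incubated 15 min with compound at room temperature in 100 mM sodium acetate pH 5.5, 5 mM DTT, 0.00005% Triton X-100. Reaction started with 2 uM Z-FR-AMC; AMC fluorescence increase over 60 s gives rate.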
Cruzain inh Det – cruzain (T. cruzi) inhibition with detergent. P25779. purified cruzain, Z-FR-AMC fluorescence, 0.01% Triton. Potency, µM, without a hit: max response, negative = inhibition, most hits filed as inhibitors. 0.43% of 200,000 active. AID 1478;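 note: plate controls were neutral wells for no effect and buffer without enzyme for full effect; nearly all actives have a fitted effect of over 40% in size; top concentration of the series not given in the record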
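Compounds were screened in titration against cruzain (1.5 nM) with 0.01% Triton X-100 to counter colloidal aggregation. Activity was the AMC fluorescence increase over 60 s after adding 2 uM Z-FR-AMC at pH 5.5.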
SARS PLP yeast – blocks SARS-CoV papain-like protease in a yeast assay; 0.19% of 330,000 active; AID 485353; S. cerevisiae expressing SARS-CoV PLpro, growth rescue; control for the full effect not named in the record; Potency, µM (titrated, usually from 32.9 µM), for inactives: top-dose activity, positive = growth rescue; active means well fitted rising curve with a large enough effect; inconclusive means small, poorly fitted or top-dose-only effect; inactive means no such curve, though single readings can be large or run the other way; note: 0% is about no effect; nearly all actives have a fitted effect of over 55% in size; growth read by luminescence after 48 h
Marburg entry inh – inhibitors of Marburg virus binding or cell entry. Marburg virus pseudotyped entry inhibition, cell reporter; control for the full effect not named in the record; about a third of the inactives were read at about 46 µM. Potency, µM (titrated, usually from 37.8 µM), without a hit: top-dose activity change, negative = inhibition, actives largely listed as inhibitors. 1.8% of 300,000 active; active = well fitted inhibition curve with a large enough effect; inconclusive = small, poorly fitted or top-dose-only effect, or effect the other way; inactive = flat fitted curve, though single readings scatter; tested in HEK293 cells; about a fifth of its hits are not listed in these tables; note: % is set by controls: 0 for no effect and ±100 for the full control effect; luciferase read-out
NS1 function inh – inhibitors of influenza NS1 protein function | 0.4% of 270,000 active | S. cerevisiae slowed by influenza A NS1, growth recovery by OD600 | AID 2326 | Potency, µM (highest dose often 46.1 µM), for inactives: at the highest dose activity, positive = more growth; active means well fitted rising curve with a large enough effect; inconclusive means small, poorly fitted or top-dose-only effect; inactive means no such curve, though single readings can be large or run the other way; note: nearly all actives have a fitted effect of over 50% in size
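OD600 was taken as the measure of yeast growth restored by compound in an NS1-expressing S. cerevisiae strain. Cells had been washed out of glucose medium and diluted 1:100 into galactose -URA medium, pH 6.0.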
Lassa entry inh – Lassa virus entry inhibition. Lassa virus pseudotype entry inhibition, cell reporter; control for the full effect not named in the record. Potency, µM (titrated, usually from 37.9 µM), without a hit: at the highest dose activity change, negative = inhibition, hits mostly inhibitors. 1.2% of 300,000 active; active means well fitted inhibition curve with a large enough effect; inconclusive means small, poorly fitted or top-dose-only effect, or effect the other way; inactive means flat fitted curve, though single readings scatter; tested in HEK293 cells; note: % is set by controls: 0 for no effect and ±100 for the full control effect; nearly all actives have a fitted effect of over 50% in size; luciferase read-out
RE007 growth inh – less growth of the S. pombe RE007 Vpr strain; AID 651644; S. pombe RE007 Vpr strain, BacTiter-Glo ATP luminescence, 24 h; control for the full effect not named in the record; Potency, µM (top dose mostly 92.2 µM), inactives show top-dose activity change, negative = less growth; 0.21% of 360,000 active; active = well fitted falling curve with a large enough effect; inconclusive = small, poorly fitted or top-dose-only effect; inactive = no such curve, though single readings can be large or run the other way;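 note: % is set by controls: 0 for no effect and ±100 for the full control effect; nearly all actives have a fitted effect of over 50% in size; the assay follows cell death caused by Vpr and the record does not say whether a fall means rescue or toxicity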
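Fission yeast RE007 carrying one integrated HIV-1 vpr copy, seeded at OD 0.01 in PMG+AL medium with 23 nL pinned compound. Grown 24 h at 30 degrees; viability read by BacTiter-Glo luminescence after 5 min.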
StopGo reporter – FMDV 2A StopGo reporter, luciferase signal | 1.2% of 410,000 active | Potency, µM (top dose mostly 57.9 µM), for the others: at the highest dose signal change, negative = less light | human cells with a luciferase reporter of 2A StopGo recoding; control for the full effect not named in the record | AID 1159524; active = well fitted falling curve with a large enough effect; inconclusive = small, poorly fitted or top-dose-only effect; inactive = no such curve, though single readings can be large or run the other way; tested in HEK293T cells; note: % is set by controls: 0 for no effect and ±100 for the full control effect; nearly all actives have a fitted effect of over 45% in size; luciferase light after 4 h
Numbers without * were called inactive; ? = inconclusive; nt = no result given; & = joins results of further samples; [ ] = another dose, or the depositor's remark. Unless noted, calls come from the whole dose curve; as a rule, active = well fitted curve in the direction sought with a large enough effect; inconclusive = small, poorly fitted or top-dose-only effect, or another doubt; inactive = no such curve, though single readings can be large; an effect the other way counts as inactive or inconclusive. Potency is the fitted concentration of half-maximal effect.

Screens in order – Cruzain noTriton, Cruzain inh Det, SARS PLP yeast, Marburg entry inh, NS1 function inh, Lassa entry inh, RE007 growth inh, StopGo reporter
1	CCOC(=O)N1CCC(NC(=O)C(Cc2ccccc2)NC(=O)c2ccco2)CC1 (stereo not given)
→ -6.8%, -2.9%, -3.4%, 11.2%, -9.5%, 0.0%, 1.4%, -10.8%
2	CC(C)(C)C(=O)Nc1cc(S(=O)(=O)Nc2ccc(Cl)cc2)ccc1Cl
→ -1.6%, -9.6%, -11.2%, -15.4%, -52.0%, -5.9%, 17.7%, -16.1%
3	CCN(CC)S(=O)(=O)c1cccc(NC(=S)NC(=O)/C=C/c2ccc(S(=O)(=O)N3CCOCC3)cc2)c1
→ ?, -3.4%, 2.0%, -2.5%, 8.9%, ?, 0.8%, ?
4	O=C1NC(=Nc2ccccc2Cl)S/C1=C\c1cccc([N+](=O)[O-])c1
→ nt, nt, -26.7%, ?, -39.0%, -4.2%[46.1 µM], -0.5%, ?
5	Cc1cc(C)c(C#N)c(SCC(=O)Nc2ccc(S(=O)(=O)Nc3ncccn3)cc2)n1
→ nt, nt, -0.3%, ?, -29.5%, 9.5%, 10.3%, 17.7%
6	COc1ccccc1CNC(=O)[C@H](C)NC(=O)C1CCN(C(=O)[C@@H]2CCCN2C(=O)OC(C)(C)C)CC1
→ nt, nt, -5.6%, nt, -13.6%, nt, -4.8%, 5.7%
7	Cc1ccc(N2C(=O)CS/C2=N\C(=S)Nc2ccccc2)cc1
→ nt, nt, 0.5%, -11.6%, 17.2%, ?, 4.3%, -9.8%
8	Cc1ccc(NCC(=O)Nc2ccc(Br)cc2)cc1C
→ nt, nt, -15.0%, nt, -13.7%, nt, 6.7%, 55.9%[activator]
9	COc1ccc(C(CNS(=O)(=O)c2ccc(F)cc2)N2CCN(C)CC2)cc1 (stereo not given)
→ nt, nt, -0.9%, -9.2%, nt, 15.9%, 7.5%, 0.5%
10	COc1cccc(C2(O)CCN(C(=O)Cc3cccnc3)CC2)c1
→ -7.8%, 2.0%, -1.8%, ?, -0.3%, 2.6%, -3.9%, -14.1%
11	Nc1nnc(C2CCCC2)s1
→ 5.9%, 3.0%, 0.5%, -31.5%, ?, 12.7%, 13.6%, -3.3%
12	CCOC(=O)c1c(-c2ccc(F)cc2)csc1NC(=O)CCN1CCOCC1
→ 13.5%, -3.1%, -51.2%, 9.5%, -20.5%, -24.6%, 0.9%, -12.6%
13	COc1ccc(Br)cc1/C=C1\Oc2ccccc2NC1=O
→ nt, nt, -0.8%, nt, -0.1%, nt, -11.3%, -9.8%
14	O=C1CC(c2cccc(F)c2)SC(N(c2ccccc2)c2ccccc2)=N1 (stereo not given)
→ -0.2%, -5.3%, -0.3%, ?, 7.7%, -2.3%, 15.6%, -23.3%
15	N#CC1=C(N)Oc2c(c(=O)oc3ccccc23)C1c1cccnc1 (stereo not given)
→ -7.9%, -1.2%, ?, 11.9%, -7.2%, -2.9%, 5.0%, -21.3%
16	CC(C)CNS(=O)(=O)c1cc2c3c(c1)CC(=O)N3CCC2
→ nt, nt, 1.0%, nt, ?, nt, 3.8%, 31.3%[activator]
17	O=C(COC(=O)c1cccc(C(F)(F)F)c1)NCc1ccccc1
→ 0.3%, 0.0%, -4.3%, 3.6%, -7.7%, -2.0%, -7.8%, -11.5%
18	O=C(CN1CCN(C(=O)c2ccco2)CC1)Nc1ccc2c(c1)OCCO2
→ 1.4%, 0.9%, 2.1%, 5.2%, -2.2%, 3.6%, 41.3%, -27.1%
19	CC(Nc1ccccc1)c1ccncc1 (stereo not given)
→ nt, nt, -1.3%, 5.3%[46.1 µM], 3.0%, -2.8%[46.1 µM], -12.9%, 8.3%
20	COc1cc(NC(=O)C2=C(C)Nc3nnnn3C2c2ccc(SC)cc2)c(OC)cc1Cl (stereo not given)
→ ?, -12.3%, nt, -3.9%[46.1 µM], nt, -21.3%[46.1 µM], nt, -19.9%
21	COc1ccc(NC(=O)CSc2ccc(-c3cccnc3)nn2)cc1
→ nt, nt, 26.4%, 13.0%, 4.5%, -23.9%, 7.5%, -4.9%
22	CC(C)NC(=O)c1ccc(C(C)C)cc1
→ nt, nt, 0.0%, ?, -4.6%, ?, 6.9%, 24.6%
23	Cc1cccc(OCCCCc2c(C)n[nH]c2C)c1C
→ -3.2%, 3.0%, -3.7%, -18.4%, -96.6%, 2.5%, 2.6%, -29.3%
24	CCn1c(NCc2ccco2)nc2ccccc21
→ nt, nt, 1.3%, -4.4%[46.1 µM], nt, 10.6%, -29.0%, 16.9%
25	CC(C)Cc1nc2cccnc2n1C1CCNCC1
→ -1.9%, 1.4%, nt, nt, nt, 18.7%[46.1 µM], nt, -11.0%
26	CN(CC(=O)Nc1cccc(C(F)(F)F)c1)Cc1ccccc1
→ nt, nt, 0.1%, -6.2%[46.1 µM], -0.5%, -16.7%, -8.3%, -6.6%
27	CSc1ncc(F)c(N(CCO)CCO)n1
→ -6.0%, -2.1%, -0.7%, -0.4%, 3.0%, -9.5%, nt, -26.8%
28	Cc1cccc(NCc2ccc(Br)cc2)n1
→ nt, nt, -1.0%, ?, 1.5%, ?, -8.2%, 14.9%
29	Cc1cc(=O)oc(C)c1C(=O)Nc1cccc2nonc12
→ 0.8%, 2.2%, -6.4%, 5.0%, 1.4%, -8.0%, 19.0%, 6.1%
30	CCOC(=O)c1cnc(SCC(=O)Nc2ccc(NC(=O)CC)c(OC)c2)nc1N
→ 1.2%, 1.4%, 11.4%, 11.2%, 9.6%, 1.6%, 12.7%, 35.9%[activator]
31	CC(=O)c1cccc(N2C(=O)C3C4CCC(C4=C(C)C)C3C2=O)c1 (stereo not given)
→ 2.3%, 1.2%, 12.2%, ?, ?, 1.0%, -18.9%, -15.9%
32	COc1c(C)cc(Br)cc1C(=O)NCc1cccnc1
→ -21.6%, -1.1%, 2.2%, ?, 5.1%, -0.6%, -2.7%, 13.0%
33	COCCNC(=O)C(c1ccco1)N(C(=O)Cn1nnc2ccccc21)c1ccc(C)cc1C (stereo not given)
→ ?, 4.8%, 1.1%, 16.1%, -8.6%, -16.6%, 0.0%, 15.5%
34	COc1ccc(NC(=O)C(Cc2ccccc2)NS(=O)(=O)c2ccc3c(c2)CCN3C(C)=O)cc1 (stereo not given)
→ -3.8%, -2.5%, nt, ?, nt, -9.3%[46.1 µM], nt, -4.6%
35	COC(=O)c1ccccc1NC(=O)NC1CCC(C)CC1 (stereo not given)
→ nt, nt, -1.4%, nt, 0.9%, nt, -0.6%, 0.0%
36	Cc1cccc(N(C)C(=O)CN2C(=O)COc3ccc(S(=O)(=O)N4CCCCCC4)cc32)c1
→ ?, -3.9%, -0.3%, nt, -4.1%, -11.0%[46.1 µM], -19.5%, -10.9%&4.3%
37	CC1(C)CCCC2=C1CC1C(=O)N(N)C(=O)C1C2 (stereo not given)
→ nt, nt, 1.4%, -12.1%[46.1 µM], 0.2%, 0.0%, 0.0%, -11.9%
38	CCN(Cc1ccccc1)S(=O)(=O)c1cc(C(=O)NCCCN(C)C)ccc1OC
→ nt, nt, 2.2%, ?, nt, 10.5%[46.1 µM], 13.3%, -12.8%
39	Cn1c(=O)c2[nH]c(N3CCN(c4ccccc4)CC3)nc2n(C)c1=O
→ nt, nt, 0.3%, nt, 6.5%, nt, 14.6%, 1.2%
40	COc1ccc(-c2c(C#Cc3ccsc3)c3cc(-c4ccc(OC)nc4)ccc3n2C)cc1
→ nt, nt, 4.2%, -0.3%, nt, nt, -0.3%, -18.2%
41	O=C(CCOc1ccccc1)Nc1ccccc1
→ 5.3%, 0.6%, -2.7%, ?, -9.4%, 16.9%, 2.4%, 27.5%
42	O=S(=O)(Nc1cc(S(=O)(=O)N2CCCC2)ccc1O)c1ccc(Cl)s1
→ nt, nt, -2.9%, -11.6%[46.1 µM], nt, 3.2%, -9.5%, -0.2%
43	COc1ccc(/C=C2\SC(N)=NC2=O)cc1Cl
→ nt, nt, 0.1%, 0.1%[46.1 µM], 0.6%, -6.1%[46.1 µM], 0.6%, -6.7%
44	CC1CCC(NC(=O)C2(C)CCC(=O)N2Cc2cccnc2)CC1 (stereo not given)
→ -1.6%, 1.6%, -0.2%, nt, ?, nt, 3.6%, -22.8%
45	O=C(Nc1ccc(Cl)cc1F)C1CCN(S(=O)(=O)c2cccc3nonc23)CC1
→ nt, nt, 2.6%, ?, 26.1%, -26.0%, 1.1%, -14.3%
46	C=CCn1c(SCC(=O)Nc2cc(C)cc(C)c2)nnc1-c1cnccn1
→ 21.4%, 0.6%, 4.8%, -10.0%, -12.7%, -19.0%, -9.1%, -12.0%
47	CCC1CN(C(=O)N2CCC(C(=O)N3CCN(c4ccccc4F)CC3)CC2)c2ccccc2O1 (stereo not given)
→ 2.9%, -0.4%, nt, nt, nt, ?, nt, ?
48	CC1CCCCN1C(=O)COC(=O)CNC(=O)c1sc2ccccc2c1Cl (stereo not given)
→ nt, nt, 1.0%, 7.3%[46.1 µM], nt, -5.0%, -11.3%, -4.9%
49	CC(NCC(O)COCCC12CC3CC(CC(C3)C1)C2)c1ccccc1 (stereo not given)
→ nt, nt, 0.3%, 11.6µM*, -35.7%, ?, 23.5%, 31.6µM*
50	CC1CCCN(C(=O)CSc2nnc(-c3ccco3)n2C)C1 (stereo not given)
→ nt, nt, 1.4%, 2.5%[46.1 µM], 1.8%, nt, 0.7%, 3.4%
51	CC(=O)N(CCC(Cc1ccccc1)c1ccco1)Cc1ccco1 (stereo not given)
→ nt, nt, 2.9%, nt, 2.3%, nt, 14.4%, ?
52	Oc1c(Br)cc(Br)cc1/C=N/NC(=S)N[C@H]1CC2C=CC1C2 (stereo not given in full)
→ nt, nt, -2.4%, ?, -0.5%, -9.5%, 10.0%, -23.7%
53	CCN1C(=O)C(=Cc2cccc(OC)c2Oc2ccc([N+](=O)[O-])cc2[N+](=O)[O-])SC1=S
→ nt, nt, -0.2%, ?, 4.0%, ?, -14.0%, 12.6µM*
